# TRPML1 blocker: qHTS for Inhibitors of the Human Mucolipin Transient Receptor Potential 1 (TRPML1); Mucolipin-1 (Homo sapiens), Q9GZU1; TRPML1-inducible cells, Ca2+ dye fluorescence, FDSS; active compounds read low; inhibition of EC80 agonist-evoked calcium signal; activity change, negative = inhibition, % (test concentration not listed); 390,000 compounds, 0.02% hits; AID 624415, 2012; in the data active means activity change below about -50%; inconclusive means about -30% to -50%; inactive means above about -30%;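 note: stimulus is agonist 54-4 at its EC80 concentration; % is set by controls: 0 for no effect and ±100 for the full control effect; compound concentration not given in the record; the text of the record puts the active cut at -80%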
#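 Calcium fluorescence in TRPML1-DL cells induced overnight with Tet: a 110 s read after compound pin addition, then a 110 s antagonist read after challenge with 54-4 at 4 uM final (EC80).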
# D2 potentiator: Beta-Arrestin HTS for Positive Allosteric Modulators of the Human D2 Dopamine Receptor: Potentiators. potentiation, % (no concentration beside the values). DiscoveRx D2 beta-arrestin cells, luminescence, 90 min; 100% = 57 uM dopamine signal. D(2) dopamine receptor (Homo sapiens), P14416. 360,000 compounds, 0.23% hits; active = potentiation of 50% or more; inconclusive = 30% to 50%; inactive = 30% or less;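 note: compound concentration not given in the record; tested on top of an EC20 dose of dopamine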
#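 PathHunter beta-arrestin assay in DiscoveRx D2 cells. Compounds were added with an EC20 of dopamine (50 nM final) for 90 min at 37 deg C. Luminescence was read 1 h after detection reagent, with 57 uM dopamine as the EC100 control.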
# TRPML1 agonist: qHTS for Agonists of the Human Mucolipin Transient Receptor Potential 1 (TRPML1). Mucolipin-1 (Homo sapiens), Q9GZU1. TRPML1-expressing cells, Ca2+ dye fluorescence, FDSS; host cell line not named in the record; reference of the full effect not given here. activation, % (no concentration beside the values). 410,000 compounds, 0.12% hits; in the data active = activation above about 50%; inconclusive = about 30% to 50%; inactive = below about 30%; note: 0% is about no effect; the text of the record puts the active cut at 80%
#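 Agonist activity was taken from a 110 s kinetic Ca2+ dye read on the FDSS after pinning compounds onto TRPML1-DL cells. The cells were seeded at 1,500/well with Tet inducer, incubated about 16 h, then dye-loaded at room temperature.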
# CtBP-E1A blk: qHTS Assay for Inhibitors of the CtBP/E1A Interaction | activity change, % (no concentration beside the values) | AlphaScreen GST-E1A/His-CtBP binding, 1536-well; active compounds read low; control for the full effect not named in the record | AID 651724, 2012 | 340,000 compounds, 0.49% hits | CtBP / adenovirus E1A interaction (AlphaScreen); in the data active means activity change below about -65%; inconclusive means about -30% to -65%; inactive means above about -30%; note: % is set by controls: 0 for no effect and ±100 for the full control effect
#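 Protein mix (5X: 125 nM each GST-E1A, His-CtBP) was incubated with pinned compound 2 h at 37 deg C in dark, in 50 mM Tris pH 8.0 buffer with 300 mM NaCl. Glutathione donor and nickel acceptor beads followed; AlphaScreen signal read after 1 h.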
# TRPV1 PAM: HTS Assay for Compounds that Act as Potentiators of the Vanilloid Receptor 1. 320,000 compounds, 0.02% hits. TRPV1-expressing cells, Fluo-8 calcium influx, capsaicin EC20 potentiation; host cell line not named in the record; control for the full effect not named in the record. AID 540277, 2011. potentiation, % at 8.33 µM. Transient receptor potential cation channel subfamily V member 1 (Homo sapiens), Q8NER1; active means potentiation above 80%; inconclusive means 30% to 80%; inactive means below 30%; note: 0% is about no effect
# Target sequence (Q8NER1 whole entry, looked up): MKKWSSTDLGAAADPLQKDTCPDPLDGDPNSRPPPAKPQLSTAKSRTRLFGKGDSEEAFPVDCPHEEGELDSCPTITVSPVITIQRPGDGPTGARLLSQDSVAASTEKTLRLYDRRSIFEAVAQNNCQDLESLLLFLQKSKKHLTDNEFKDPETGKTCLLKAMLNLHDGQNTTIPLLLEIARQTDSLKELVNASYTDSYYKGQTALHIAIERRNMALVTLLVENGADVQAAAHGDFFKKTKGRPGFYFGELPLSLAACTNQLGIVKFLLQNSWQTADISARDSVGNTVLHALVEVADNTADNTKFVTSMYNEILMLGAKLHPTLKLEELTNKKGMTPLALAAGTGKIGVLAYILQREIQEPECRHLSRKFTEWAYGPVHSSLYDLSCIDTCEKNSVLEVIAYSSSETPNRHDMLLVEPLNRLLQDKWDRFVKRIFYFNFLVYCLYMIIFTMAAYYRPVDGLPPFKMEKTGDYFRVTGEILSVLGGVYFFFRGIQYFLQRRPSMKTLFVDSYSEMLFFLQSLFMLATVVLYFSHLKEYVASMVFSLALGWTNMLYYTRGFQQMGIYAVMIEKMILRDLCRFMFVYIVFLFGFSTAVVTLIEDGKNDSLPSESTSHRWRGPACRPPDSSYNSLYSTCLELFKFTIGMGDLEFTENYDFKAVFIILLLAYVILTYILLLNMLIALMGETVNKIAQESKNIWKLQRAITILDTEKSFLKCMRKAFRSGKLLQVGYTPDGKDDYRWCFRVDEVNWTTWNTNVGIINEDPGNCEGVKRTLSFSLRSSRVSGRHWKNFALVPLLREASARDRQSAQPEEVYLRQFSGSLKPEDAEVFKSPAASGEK
#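 Cells expressing TRPV1 were dye-loaded with Fluo-8 and read kinetically: 10 s baseline, 3 min after compound (agonist portion), then 2 min after EC20 capsaicin (allosteric enhancer portion). Calcium-bound dye fluorescence at 480/520 nm.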
# Six1-Eya2 blk: qHTS Assay for Inhibitors of the Six1/Eya2 Interaction; activity change, % (concentration not given with the values); AID 651725, 2012; AlphaScreen GST-Six1/His-Eya2 binding, biochemical; active compounds read low; control for the full effect not named in the record; 360,000 compounds, 0.56% hits; Homeobox protein SIX1 (Homo sapiens) + Protein phosphatase EYA2 (Homo sapiens), …; in the data active = activity change below about -65%; inconclusive = about -30% to -65%; inactive = above about -30%; note: % is set by controls: 0 for no effect and ±100 for the full control effect
#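 Compounds are tested against tagged Six1 and Eya2 proteins bridged by glutathione donor and nickel acceptor beads; after a one-hour incubation at 37 °C without light, AlphaScreen emission is recorded.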
# Numbers without * were called inactive; ? = inconclusive; . = not tested or not shown. Only part of the results is shown. The share of hits here may be higher or lower than overall.
entry | Structure | TRPML1 blocker | D2 potentiator | TRPML1 agonist
1 | CC(=NCC1CCCO1)c1c(O)n(-c2ccccc2)c(=O)[nH]c1=O (stereo not drawn) | 5 | -14 | -0.7
2 | CCN1CCN(C(c2cccs2)C(C)NC(=O)Oc2ccccc2)CC1 (stereo not drawn) | -8 | -5 | 0.0
3 | O=C(Cn1nc(-c2ccc(Cl)cc2)ccc1=O)N1CCC2(CC1)OCCO2 | 24 | -3 | 0.0
4 | CCCC(C)n1[nH]c(=O)c2c1NC(=O)CSC2c1ccc(OC)cc1 (stereo not drawn) | -13 | 0 | 0.7
5 | c1ccc(CN2CCc3nc4ccccc4cc3C2)cc1 | -23 | 27 | 0.0
6 | CS(=O)(=O)NCc1nnc2n1-c1ccc(Cl)cc1C(c1ccccc1)=NC2 | -2 | 1 | 1.2
7 | C/C(=N\N=C(N)N)c1ccccc1 | 8 | -18 | 0.1
8 | COc1ccc(N=Cc2c(O)n(C)c(=O)n(C)c2=O)cc1 | . | -10 | .
9 | CN(C)c1ccc(C=C(C#N)C#N)cc1 | -11 | -11 | 0.8
10 | c1ccc(CNC2CCCCCCC2)cc1 (tested in a mixture with another compound) | 1 | -21 | 1.1
11 | O=C(Nc1ccccc1)N1CCC2(CC1)OCCO2 | 1 | 0 | -0.3
12 | CC(=O)OC1C2CCC1C(N1CCCCC1)CC2 (stereo not drawn) | -9 | -6 | -0.8

entry | CtBP-E1A blk | TRPV1 PAM | Six1-Eya2 blk
1 | 7 | 1 | -1
2 | 1 | 5 | -1
3 | 2 | 105* | 2
4 | 2 | 2 | 4
5 | 3 | 6 | -4
6 | -3 | -2 | 5
7 | 1 | 6 | 3
8 | -4 | 27 | -10
9 | 0 | -9 | 6
10 | -20 | . | 15
11 | . | 0 | 3
12 | 0 | -1 | -3

# Four entries drawn at random from the list so far:
entry | Structure | TRPML1 blocker | D2 potentiator | TRPML1 agonist
3 | O=C(Cn1nc(-c2ccc(Cl)cc2)ccc1=O)N1CCC2(CC1)OCCO2 | 24 | -3 | 0.0
11 | O=C(Nc1ccccc1)N1CCC2(CC1)OCCO2 | 1 | 0 | -0.3
1 | CC(=NCC1CCCO1)c1c(O)n(-c2ccccc2)c(=O)[nH]c1=O (stereo not drawn) | 5 | -14 | -0.7
7 | C/C(=N\N=C(N)N)c1ccccc1 | 8 | -18 | 0.1

entry | CtBP-E1A blk | TRPV1 PAM | Six1-Eya2 blk
3 | 2 | 105* | 2
11 | . | 0 | 3
1 | 7 | 1 | -1
7 | 1 | 6 | 3

# A second format for some results above.
(11) O=C(Nc1ccccc1)N1CCC2(CC1)OCCO2
(12) CC(=O)OC1C2CCC1C(N1CCCCC1)CC2 (stereo not drawn)
assay / compound,11,12
TRPML1 blocker,1,-9
D2 potentiator,0,-6
TRPML1 agonist,-0.3,-0.8
CtBP-E1A blk,.,0
TRPV1 PAM,0,-1
Six1-Eya2 blk,3,-3

# Continuation.
entry | Structure | TRPML1 blocker | D2 potentiator | TRPML1 agonist
13 | CCOP(=S)(OCC)SCCSCC | -3 | 3 | -0.7
14 | COc1ccccc1OP(=O)(Nc1ccc(Br)cc1)Oc1ccccc1OC | -1 | -4 | -0.1
15 | CC12CN3CCN(C1)CC(C)(C3)C2=NN | 5 | -3 | -0.1
16 | Cc1cc(O)c2c3c(c(=O)oc2c1)CCC(C)C3 (stereo not drawn) | 26 | -9 | 0.5
17 | CCOP(=O)(OCC)C(O)c1ccc2c(c1)OCO2 (stereo not drawn) | 6 | 1 | 0.7
18 | COc1ccc(C(=O)C2CCCN(C3CSCCSC3)C2)cc1OC (stereo not drawn) | 13 | -38 | -1.0
19 | CCc1ccc(N2C(=O)CC(=O)NC2=O)cc1 | . | 14 | .
20 | Cc1ccc(N=Nc2c(O)[nH]c(=O)[nH]c2=O)c([N+](=O)[O-])c1 | -5 | -5 | 0.1
21 | CCOc1ccc(-c2c(C)n(-c3ccc(OCC)cc3)c3[n+]2CCCCC3)cc1 | 7 | -16 | -0.8
22 | CC(C)(C)NS(=O)(=O)c1ccc(OCC(=O)N2CCN(Cc3ccccc3)CC2)cc1 | -18 | 3 | -0.3
23 | O=S(=O)(c1cc(Cl)cc(Cl)c1)N1Cc2cc(-c3cccc(F)c3)ccc2-n2nncc2C1 | . | 2 | -0.6
24 | c1ccc2sc(N3CCNCC3)nc2c1 | 13 | -12 | 0.5

entry | CtBP-E1A blk | TRPV1 PAM | Six1-Eya2 blk
13 | 15 | -2 | 2
14 | 2 | 6 | -11
15 | -5 | -1 | 8
16 | -10 | -19 | 5
17 | . | 23 | 1
18 | -6 | -21 | -15
19 | . | 12 | -2
20 | -19 | 6 | ?
21 | 1 | ? | 5
22 | 15 | -6 | -8
23 | 9 | . | 3
24 | 8 | -4 | 18

# Following part.
entry | Structure | TRPML1 blocker | D2 potentiator | TRPML1 agonist
25 | COc1ccc(-n2c(CNCCc3ccc(C)cc3)nc3ccccc3c2=O)cc1 | -6 | -10 | -0.6
26 | Cc1ccccc1C(=O)NC(Oc1ccccc1)C(Cl)(Cl)Cl (stereo not drawn) | 6 | -3 | -0.1
27 | COC(=O)C1=C(c2c(C)noc2C)C[C@@H]2CC[C@H]1N2C(=O)NCc1ccco1 | 16 | -10 | 0.3
28 | OCC[n+]1c2ccccc2nc2ccc(N3CCOCC3)cc21 | 3 | -4 | -0.2
29 | Cc1c(NC(NC(=O)CF)C(Cl)(Cl)Cl)c(=O)n(-c2ccccc2)n1C (stereo not drawn) | 13 | -10 | 1.3
30 | COC(=O)C1=C(c2ccc(F)cc2OCc2ccccc2)C[C@@H]2CC[C@H]1N2C(=O)NCCOc1ccccc1 | 2 | -6 | -0.3
31 | CC1=CC(=C2C(=O)NC(=O)NC2=O)C=C(C(F)(F)F)N1C(C)C | -4 | 1 | -0.3
32 | CCOC(=O)C(O)(c1ccc(N(CC)S(=O)(=O)c2ccc(C)cc2)cc1)C(F)(F)F (stereo not drawn) | 83 | -9 | 1.6
33 | C=CCn1c(O)c(C(C)=NCCCN(C)C)c(=O)[nH]c1=O | 5 | -10 | -0.4
34 | COc1ccc(N2C(=O)NC(=O)C(CCc3ccncc3)(CCc3ccncc3)C2=O)cc1 | 2 | -8 | -0.2
35 | CCCC(=O)OCC[N+](C)(C)C | -12 | 0 | 0.5
36 | COc1ccc(-[n+]2c(-c3ccccc3)cc(-c3ccc(C)cc3)cc2-c2ccccc2)cc1 | 11 | -9 | 2.2
37 | O=C(c1cccnc1)N1Cc2ccccc2-n2nncc2C1 | 22 | 1 | 0.1
38 | Cc1cccc(OP(=O)(Oc2cccc(C)c2)OC(c2ccccc2)C(F)(F)F)c1 (stereo not drawn) | 37 | -21 | 0.5

entry | CtBP-E1A blk | TRPV1 PAM | Six1-Eya2 blk
25 | 0 | -27 | 2
26 | 16 | -3 | 3
27 | 5 | 10 | 1
28 | -13 | -1 | ?
29 | 16 | 6 | 1
30 | -5 | 3 | -14
31 | -12 | -2 | -6
32 | 3 | -13 | 8
33 | -21 | 1 | -1
34 | 8 | 7 | 1
35 | 3 | -2 | 5
36 | ? | 6 | -12
37 | 1 | . | 5
38 | 26 | 17 | 31

# Complete entries, quoted from the list:
# Cc1cc(O)c2c3c(c(=O)oc2c1)CCC(C)C3 (stereo not drawn) is listed with TRPML1 blocker = 26; D2 potentiator = -9; TRPML1 agonist = 0.5; CtBP-E1A blk = -10; TRPV1 PAM = -19; Six1-Eya2 blk = 5
# CCOC(=O)C(O)(c1ccc(N(CC)S(=O)(=O)c2ccc(C)cc2)cc1)C(F)(F)F (stereo not drawn) is listed with TRPML1 blocker = 83; D2 potentiator = -9; TRPML1 agonist = 1.6; CtBP-E1A blk = 3; TRPV1 PAM = -13; Six1-Eya2 blk = 8
# Cc1ccc(N=Nc2c(O)[nH]c(=O)[nH]c2=O)c([N+](=O)[O-])c1 is listed with TRPML1 blocker = -5; D2 potentiator = -5; TRPML1 agonist = 0.1; CtBP-E1A blk = -19; TRPV1 PAM = 6; Six1-Eya2 blk = ?

# Bioassay records (PubChem BioAssay)
